BJeLR lethal – kills HRASV12-expressing BJeLR cells; BJeLR (HRASV12) viability, CellTiter-Glo ATP luminescence, 48 h; reference of the scale not given here; inhibition, % (test concentration not listed); 300,000 compounds, 0.17% hits; AID 1554;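 active means replicate mean above 50%; inconclusive means above 50% but judged a plate artefact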;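 further: 50 nL library stock added to about 25 µL; numbers are from one replicate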
Autofluor counter – compound fluorescence in toxin protease inhibitor counterscreen; fluorescence intensity (no concentration beside the values); compound autofluorescence counterscreen, microsphere flow cytometry; stronger effect = higher value; 360,000 compounds, 3.1% hits; AID 624483;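 active means at least 3 SD above the mean of all compounds, about 16000 in these data; inconclusive means too few beads counted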;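 further: 100 nL of 1 mM stock went into each well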
Mtb hypoxia inh – inhibitors of hypoxia-regulated fluorescent reporter in Mycobacterium tuberculosis; M. tuberculosis hypoxia-regulated fluorescent reporter, fluorescence; fluorescence inhibition, % (test concentration not listed); 300,000 compounds, 0.1% hits; AID 1159583;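 active means 35 to 45% if threefold the growth effect, above 45% if 1.5-fold the growth effect; inactive means the rest, general growth blockers included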;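 further: wells of about 50 µL received 100 nL stock; 0% = vehicle wells and 100% = reference inhibitor wells; whole bacteria with a GFP reporter of the hypoxia response; strong numbers were not always called active; many hits fall short of the cut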
Sa ugtP lethal – kills S. aureus RN4220 lacking UgtP | growth inhibition, % (concentration not given with the values) | S. aureus RN4220 ugtP deletion, OD600 growth, 16 h; some inactives read as strong as hits | 330,000 compounds, 0.54% hits;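 active means z-score under -3 and OD600 up to 0.15 on both plates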;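 further: plate controls were untreated wells for no effect and antibiotic for full effect; wells of about 80 µL received 100 nL stock; the first replicate is given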
PrP UTR inh – suppresses PrP 5' UTR mRNA reporter expression; cell-based PrP 5' UTR mRNA reporter, plate reader; 340,000 compounds, 0.35% hits; inhibition, % (no concentration beside the values);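 active means every replicate at 50% or more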;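 further: 0 = median of the neutral control wells; tested in H4 reporter cells; numbers are from one replicate; inactives centre near -14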
RN4220 kill – kills Staphylococcus aureus RN4220 | S. aureus RN4220 growth, OD600, 16 h | inhibition, % (test concentration not listed) | 330,000 compounds, 0.33% hits;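 active means z-score of -3 or lower and OD600 up to 0.18 on both plates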;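 further: plate controls were untreated cells for no effect and reference antibiotic for full effect; stock transfer was 100 nL into about 80 µL; one replicate is shown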
Mtb hypoxia inh growth – also measured in Mtb hypoxia inh; calls as there; growth inhibition, %; measured here: M. tuberculosis growth (absorbance);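 0% = vehicle and 100% = reference antibiotic; read after six days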
Active calls of the source: *; ? = inconclusive; / = not tested or not shown.

SMILES,BJeLR lethal,Autofluor counter,Mtb hypoxia inh,Mtb hypoxia inh growth,Sa ugtP lethal,PrP UTR inh,RN4220 kill
O=C(CN(Cc1ccccc1)S(=O)(=O)c1ccc(Br)cc1)NCC1CCCO1 (stereo not given),2,3758,5,5,13,-27,-0.3
CCn1c(=O)c([N+](=O)[O-])c(NCCCn2ccnc2)c2ccccc21,3,4275,-17,-10,15,-13,2.2
Cc1ccc(NC(=O)c2ccco2)cc1NC(=O)CSc1nnc(-c2cccs2)n1C,1,12832,7,11,6,-13,1.5
Cc1ccc(CNS(=O)(=O)c2ccc3c(c2)OCCO3)cc1,-2,11288,9,4,8,-13,4.5
CC(C)(C)c1ccc(OCC(O)CN(CCO)CC(O)Cn2ccc3ccccc32)cc1 (stereo not given),-6,2297,5,7,-3,-24,3.8
COc1ccc(C2CC(c3ccccc3)=NN2C(=O)COC(=O)c2cc(S(=O)(=O)N3CCOCC3)ccc2F)cc1 (stereo not given),1,2066,1,7,-2,-25,6.7
O=C(COc1ccccc1)Nn1c(-c2ccccc2)nc2ccccc2c1=O,2,2598,0,1,-6,-19,5.1
Cc1ccccc1OCCOc1cccc(/C=N/NC(=O)Cc2nnc(N)s2)c1,3,3974,/,/,/,-40,/
O=C1OCc2ccc([N+](=O)[O-])cc21,/,3780,7,8,4,-15,1.3
CC(C)COC(=O)Cc1c(O)c2ccccc2[nH]c1=O,-16,5248,0,4,-6,-29,33
C=CCOc1ccc(-c2n[nH]c(=S)o2)cc1,/,3919,5,15,10,-6,28
O=C(Nc1ccc([N+](=O)[O-])cc1)C(Cc1ccccc1)N1C(=O)c2cccc3cccc(c23)C1=O (stereo not given),-2,5885,5,-5,-20,-12,9.7
O=C(CN1CCSCC1)NN=Cc1cccc(Cl)c1,/,/,1,11,5,/,-0.3
CCc1c(C)sc(NC(=O)c2cc(C)on2)c1C#N,-2,6711,7,1,-4,/,2.1
CCOP(=O)(OCC)c1nc(-c2ccccc2)oc1N1CCCCC1,-2,3604,-7,8,-4,-37,2.4
CCOC(=O)C1C2COc3ccc(Cl)cc3C2N2C(=O)c3ccc(Cl)cc3NC(=O)[C@@]12C (stereo not given in full),/,/,0,6,-39,/,-7.2
O=C1c2cccc3cc([N+](=O)[O-])cc(c23)C(=O)N1N=Cc1ccc(O)cc1O,/,/,8,0,1,/,-1.5
O=C(Nc1cccc(C(=O)O)c1)Nc1ccccc1Cl,1,3972,1,-5,1,34,2.0
O=C(/C=C/N1CCOCC1)c1coc2ccccc12,-4,2270,/,/,/,-75,/
CCOc1ccc(S(=O)(=O)Nc2cc(C)ccn2)c2ccccc12,9,8423,3,3,-7,-26,2.1

Exported field by field: entries from further up.
mol: CCOC(=O)C1C2COc3ccc(Cl)cc3C2N2C(=O)c3ccc(Cl)cc3NC(=O)[C@@]12C (stereo not given in full)
- BJeLR lethal: /
- Autofluor counter: /
- Mtb hypoxia inh: 0
- Mtb hypoxia inh growth: 6
- Sa ugtP lethal: -39
- PrP UTR inh: /
- RN4220 kill: -7.2
mol: O=C1c2cccc3cc([N+](=O)[O-])cc(c23)C(=O)N1N=Cc1ccc(O)cc1O
- BJeLR lethal: /
- Autofluor counter: /
- Mtb hypoxia inh: 8
- Mtb hypoxia inh growth: 0
- Sa ugtP lethal: 1
- PrP UTR inh: /
- RN4220 kill: -1.5

Additional records.
SMILES,BJeLR lethal,Autofluor counter,Mtb hypoxia inh,Mtb hypoxia inh growth,Sa ugtP lethal,PrP UTR inh,RN4220 kill
CCc1ccc(-c2cc3c(=O)n(CC(=O)NCCCN4CCN(C)CC4)ncn3n2)cc1,-2,6181,4,5,4,-48,2.2
COc1ccc(NC(=O)OCC(C)C)cc1OC,9,10738,-2,-1,16,6,3.5
CC(=NNC(=O)C1(C)CC1(Br)Br)c1ccc(NC(=O)c2ccc(C)o2)cc1 (stereo not given),/,/,-2,0,-22,/,-8.3
O=C(COc1ccc(Cl)cc1Cl)NCCSc1ccc(Cl)cc1,10,2623,/,/,-4,-3,-5.1
Cc1ccc(/C=C/C(=O)NCCc2c[nH]c3ccccc23)o1,-10,4285,-9,17,1,-34,-11
Cc1ccc(C2(C)NC(=O)N(CC(=O)Nc3cc(C)on3)C2=O)cc1 (stereo not given),-2,11322,-3,2,-9,/,-1.6
CCC(=O)Nc1cc(C(=O)NCC2CCCN2CC)c(OC)cc1N(C)C (stereo not given),3,11053,3,12,-1,-18,0.9
COc1cc(C(=O)NC2CCCCC2)ccc1OC1CCN(C(C)=O)CC1,-7,3715,-1,4,-1,-15,5.0
Cc1ccc(N2C(=O)c3ccccc3C2C(=O)c2cc(C)ccc2O)cc1 (stereo not given),-13,2667,6,3,1,-20,17
O=C(N=C1SCC(=O)N1c1ccccc1Cl)c1ccccc1,0,4732,0,-3,7,-38,-2.1
O=C(CSc1nnc(Cc2ccccc2)o1)c1cc(F)ccc1F,0,3274,15,1,12,-27,3.2
O=S(=O)(Nc1ccccn1)c1cccc(S(=O)(=O)c2ccc(Br)cc2)c1,0,4622,9,0,-2,0,4.5
COC(=O)C1=C(C)Nc2ncnn2C1c1cccnc1 (stereo not given),-14,7036,9,2,1,-25,1.9
COc1ccc(Cl)cc1C(=O)Nc1ccncc1,14,/,4,7,8,3,-3.3
COc1ccc(CN2C(=O)CSCC2=O)cc1OC,4,3212,13,-7,6,-13,1.5
O=C(c1ccccc1)c1ccc(OCC(O)CNCc2ccc(F)cc2)cc1 (stereo not given),8,3684,5,17,-6,-3,0.2
NS(=O)(=O)c1ccc(CCNC(=O)CNC(=O)Cc2ccccc2)cc1,-11,3530,5,6,3,-12,2.0
Nc1ccc(C(=O)N/N=C/c2cn(Cc3ccc(F)cc3)c3ccccc23)cc1,0,4268,/,/,/,1,/
CC1SCC(NC(=O)c2ccc(Cl)cc2)CS1 (stereo not given),6,3675,/,/,6,-17,1.9
O=c1c2ccccc2c(C=Nc2ccc(Cl)cn2)c(O)n1-c1cc(Cl)ccc1N1CCOCC1,14,3256,7,10,3,-8,3.5
CCC(=O)N1CCN(c2ccc(NC(=O)c3ccc([N+](=O)[O-])o3)cc2Cl)CC1,11,3215,/,/,91*,-65,99*
CCN1CC2C3C(=O)N(Cc4ccccc4)C(=O)C3[C@](Cc3ccccc3)(C1=O)N2C(=O)c1ccc(Cl)cc1 (stereo not given in full),/,/,0,5,1,/,3.3
Cc1cccc(NC(=O)CSc2ccc(-c3cccnc3)nn2)c1,8,5672,7,5,4,-8,3.4
COCc1[nH][nH]c(=O)c1C=Nc1ccc(C(F)(F)F)cc1,-3,2578,4,10,1,-20,1.2
O=C(CNC(=O)C(=Cc1ccc(F)cc1)NC(=O)c1ccccc1)OCc1ccccc1,/,/,7,4,-4,/,10
CN(C)C(=O)Nc1ccccc1CC[N+](=O)[O-],-1,3799,-1,-3,1,-6,0.9
CCOC(=O)c1cnc(N=CN(C)C)s1,/,/,6,-2,2,/,2.2
CCc1ccc2nc(Nc3ccc(OC)cc3OC)c(C#N)cc2c1,5,5199,-1,-2,24,-22,-0.4
CC12CCC(=O)N1C(C(=O)Nc1nc(-c3ccccc3)cs1)CS2 (stereo not given),6,7480,6,-4,4,-22,4.9
CCOc1ccc(Cn2ccnc2)cc1[N+](=O)[O-],5,2572,17,3,-1,-18,6.2
O=C(COC(=O)c1cc(S(=O)(=O)N2CCOCC2)ccc1F)Nc1cc([N+](=O)[O-])ccc1F,/,3883,6,2,2,-16,1.0
Cc1cccc(NC(=O)CSCC(=O)N2CCN(C(=O)c3ccco3)CC2)c1,/,5494,2,0,4,-5,2.5
COc1ccc(C/C(C)=N\NC(=O)c2c[nH]c3ccccc23)cc1OC,-5,4209,/,/,/,-36,/
COc1ccc(C(=O)Nc2nnc(-c3ccccc3)s2)cc1,-5,5025,11,3,-1,-44,4.2
COc1ccc(C2/C(=C(\O)c3ccc4c(c3)OCCO4)C(=O)C(=O)N2Cc2ccco2)c(OC)c1 (stereo not given),-7,9846,5,7,8,-6,8.7
N#CC1=C(N)NC(=S)C(C(N)=O)C1c1ccc([N+](=O)[O-])cc1 (stereo not given),10,4480,1,0,-3,-6,1.8
CC(c1ccccc1)N1C(=O)C2C3C=CC(C4CC34)C2C1=O (stereo not given),-4,2241,4,15,3,-18,4.7
Cc1csc(NC(=O)C2CCCN(S(=O)(=O)c3cnc[nH]3)C2)n1 (stereo not given),5,5442,/,/,2,-3,0.6
CC(C)C(NC(=O)CNC(=O)OC(C)(C)C)C(=O)NCc1ccccc1 (stereo not given),2,8547,7,14,2,-8,0.9
NC(=O)C1CCCNc2c(I)cc([N+](=O)[O-])cc2C(=O)NC(CO)C(=O)NC(Cc2ccc(O)cc2)C(=O)N1 (stereo not given),/,/,3,9,-1,/,4.3
COc1ccc(NC(=S)N2CCC(NC(=O)c3ccco3)CC2)cc1,-6,4327,-3,-3,-2,1,-1.9
Cc1nc(Cl)c(N=Cc2cccc([N+](=O)[O-])c2)c(Cl)n1,-11,4301,4,6,4,-28,2.4
CCCCN(C(=O)CSc1nnc(-c2ccc(OC)cc2)n1CC)c1c(N)n(Cc2ccccc2)c(=O)[nH]c1=O,-1,1957,1,2,6,0,0.9
CC(=O)Nc1ccc(S(=O)(=O)N(Cc2cccnc2)Cc2cc3ccccc3[nH]c2=O)cc1,4,5509,4,1,7,-11,5.6
COc1ccc(NS(=O)(=O)c2ccc(NS(=O)(=O)c3cccs3)cc2)cc1,-8,3714,-1,-5,15,-17,-4.4
COc1cc(C)cc(CN2CC=C(c3ccccc3)CC2)c1O,-4,4672,2,-4,7,-17,-1.6
C/C(=N\Nc1nnc2c3ccccc3n(C)c2n1)c1ccc(C)o1,12,2428,/,/,/,-35,/
CCN(CC(=O)Nc1ccc(C(C)=O)cc1)CC(=O)Nc1ccc2c(c1)OCCO2,/,3848,6,2,0,-3,1.9
CC(NC(=O)c1cccs1)c1ccc2c(c1)OCO2 (stereo not given),6,20040*,20,19,8,-31,3.2
CC1CCCC(C)N1NC(=O)Cc1ccccc1 (stereo not given),-5,3268,-3,-18,-4,-24,-5.1

Two entries drawn at random from the list so far:
SMILES,BJeLR lethal,Autofluor counter,Mtb hypoxia inh,Mtb hypoxia inh growth,Sa ugtP lethal,PrP UTR inh,RN4220 kill
COc1cc(C)cc(CN2CC=C(c3ccccc3)CC2)c1O,-4,4672,2,-4,7,-17,-1.6
CCCCN(C(=O)CSc1nnc(-c2ccc(OC)cc2)n1CC)c1c(N)n(Cc2ccccc2)c(=O)[nH]c1=O,-1,1957,1,2,6,0,0.9

(further entries)
SMILES,BJeLR lethal,Autofluor counter,Mtb hypoxia inh,Mtb hypoxia inh growth,Sa ugtP lethal,PrP UTR inh,RN4220 kill
Cn1cc(S(=O)(=O)NC2CCCCCC2)c(=O)n(C)c1=O,-7,?,8,-5,7,-13,4.3
COc1ccc(C(=O)NC(=S)NNC(=O)c2ccc(NC(C)=O)cc2)cc1Br,0,4483,5,6,-2,-13,1.4
CCN(CC)S(=O)(=O)c1ccc(C(=O)NNc2nc(-c3ccccc3)c3cc(Br)ccc3n2)cc1,3,2043,5,4,1,-13,3.0
CCN(CC)S(=O)(=O)c1ccc(C(=O)N2CCN=C2SC)cc1,1,4696,/,/,2,-17,3.8
Cc1ccc(C(=O)NCCNC(=O)c2cnccn2)cc1,4,3153,-5,2,4,-1,2.6
CC(Oc1cc2oc(=O)c3c(c2cc1Cl)CCC3)C(=O)NCc1cccnc1 (stereo not given),9,5766,11,4,2,-18,7.5
O=C(Nc1ccccc1Cl)N1CCN(c2ccc3nnc(-c4ccc(F)cc4)n3n2)CC1,0,20523*,4,5,-2,-9,0.8
CC(C)(C)c1nnc(SCC(=O)Nc2ccc(N3CCCCC3)cc2)n1N,/,4286,6,0,8,-49,3.4
Cc1ccc(-n2nnnc2SCC(=O)NNC(=O)c2ccc([N+](=O)[O-])cc2)cc1,14,4905,-2,8,0,-16,2.4
COc1ccc(N(CC(=O)N2CCCCC2)S(=O)(=O)c2ccccc2)c(OC)c1,1,11748,4,-4,7,-15,7.6
O=C(NC(Cc1ccccc1)C(=O)NC1CC1)OCc1ccccc1 (stereo not given),7,3377,-4,-2,3,-2,2.4

Bioassay records (PubChem)
